HNF4A DNA FP: change in binding of human HNF4 alpha to DNA | P41235 | HNF4a-FITC DNA binding, fluorescence polarization, 1 h | activity change, % at 10 µM | 360,000 tested, 0.3% active; in the data active = activity change above about 30%, passing the limit was not always enough;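 note: controls were the assay level and a saturating level of protein; the project sought stronger binding though the title names inhibitors; some compounds called inactive have numbers as strong as hits; positive values seem to mean higher polarization but the record does not say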
Target sequence (P41235 whole entry, looked up): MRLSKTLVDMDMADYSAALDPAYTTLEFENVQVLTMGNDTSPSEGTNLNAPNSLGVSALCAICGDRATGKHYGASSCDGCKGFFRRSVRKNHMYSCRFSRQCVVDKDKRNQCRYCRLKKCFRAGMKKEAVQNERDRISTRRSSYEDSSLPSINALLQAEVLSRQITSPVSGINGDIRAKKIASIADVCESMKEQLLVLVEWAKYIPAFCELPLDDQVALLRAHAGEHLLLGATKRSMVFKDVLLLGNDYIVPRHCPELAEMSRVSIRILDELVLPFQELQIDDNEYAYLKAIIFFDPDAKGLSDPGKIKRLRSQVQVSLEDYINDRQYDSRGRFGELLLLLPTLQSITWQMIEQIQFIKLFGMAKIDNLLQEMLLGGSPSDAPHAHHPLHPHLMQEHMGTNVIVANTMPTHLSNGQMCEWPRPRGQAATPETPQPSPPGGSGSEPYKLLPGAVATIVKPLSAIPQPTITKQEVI
LANA-H2B inh: blocks KSHV LANA binding to histone H2A/H2B; inhibition, % (test concentration not listed); cell-free LANA-H2A/H2B peptide, fluorescence polarization; 320,000 tested, 0.6% active; AID 2629; in the data active = inhibition mostly above about 10%, no sharp cut-off; inactive = mostly below about 6.7%;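 note: stock transfer was 7.5 nL into about 10 µL; 0% = median of vehicle wells and 100% = median of positive control wells; one replicate is shown; the record names a cut of 25% in any replicate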
Bfl-1 A1 inh: inhibitors of the anti-apoptotic protein A1, read as caspase activation | MEF A1-2A-BIM cells, Caspase-Glo 3/7 luminescence, 3 h; percent of clofoctol response, vehicle zero | caspase activation, % (no concentration beside the values) | 330,000 tested, 0.066% active | AID 2462;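 active = over half of replicate activation scores above 10%, or exactly half above 10 with the replicate mean above 10; inconclusive = replicate mean below 10 yet half the replicates above 10; inactive = over half of replicates below 10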;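 note: wells of about 30 µL received 50 nL stock; many hits fall short of the cut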
UCH37 inh: inhibitors of human deubiquitinating enzyme UCH37 | AID 588478 | 330,000 tested, 0.33% active | inhibition, % (concentration not given with the values) | purified proteasome/UCH37, Ub-AMC cleavage fluorescence;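 active = mean of two replicates above 20%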;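 note: 0% = compound-free wells with enzyme and 100% = wells lacking proteasome; stock transfer was 100 nL into about 20 µL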
Target sequence (Q9Y5K5 whole entry, looked up): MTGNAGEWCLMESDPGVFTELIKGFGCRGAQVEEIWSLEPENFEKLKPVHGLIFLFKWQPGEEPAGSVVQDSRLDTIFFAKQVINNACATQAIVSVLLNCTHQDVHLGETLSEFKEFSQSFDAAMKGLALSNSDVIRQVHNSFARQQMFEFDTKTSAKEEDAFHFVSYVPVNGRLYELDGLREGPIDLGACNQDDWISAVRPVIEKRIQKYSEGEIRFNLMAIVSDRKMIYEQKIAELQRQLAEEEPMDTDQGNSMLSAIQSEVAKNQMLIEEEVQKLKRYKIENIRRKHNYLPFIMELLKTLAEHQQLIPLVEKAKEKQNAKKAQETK
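Signal – fluorescence, ex 355 nm, em 460 nm · System – Proteasome-bound UCH37 · Input – 0.15 nM proteasome as dispensed · Timing – 30 min preincubation with enzyme, 25 min cleavage at room temperature · Read-out basis – percent inhibition of cleavage signal versus uninhibited and no-proteasome wells · Medium – Tris-HCl pH 7.4 with ATP-MgCl2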
Vif A3G: HIV-1 Vif–A3G interaction blockers – biochemical, TR-FRET, GST-Vif 1-94, biotin-A3G peptide, dose response retest, primary screen (AID 1117319). TR-FRET GST-Vif / biotin-A3G peptide binding; higher % means a stronger effect; test concentration not given here; strong numbers were not always called active. one-dose inhibition, %; IC50 in µM for titrated hits. 260,000 tested, 0.57% active;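 active = above the screen mean plus three standard deviations and confirmed in dose response; inconclusive = results disagree or hit not tested in dose response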;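 note: Vif residues 1-94 fused to GST binding biotinylated APOBEC3G peptide 110-148; 0% = full assay without inhibitor and 100% = GST in place of GST-Vif; retest series ran down from 100 µM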
E coli growth: E. coli growth inhibition. Escherichia coli growth, OD600, 23 h; stronger effect = lower value. 330,000 tested, 0.21% active. OD600 absorbance (no concentration beside the values). AID 1053175;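 active = OD600 absorbance below the run mean of sample wells minus 3.6 SD, in any replicate, cut at about 0.56 in these data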;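 note: stock transfer was 300 nL into about 60 µL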
Beta2AR agonist: agonists of human beta-2 adrenergic receptor inducing internalization | 340,000 tested, 0.43% active | P07550 | response, % (no concentration beside the values) | Am2.2-beta2AR cells, FAP receptor internalization, flow cytometry; reference of the scale not given here | AID 504454;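 active = response above a set limit, near 3 SD of response in nonfluorescent compounds, cut at about 42% in these data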;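 note: stock transfer was 100 nL into about 11 µL; a reference agonist was the positive control; negative values mostly stem from fluorescent compounds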
Numbers without * were called inactive; i = inactive; u = inconclusive; x = not tested or not shown; + = active, no number; & = joins results of further samples.

SMILES	HNF4A DNA FP	LANA-H2B inh	Bfl-1 A1 inh	UCH37 inh	Vif A3G	E coli growth	Beta2AR agonist
CC(=O)C1=C(O)C(=O)N(c2ccc(C)cc2)C1c1ccc([N+](=O)[O-])cc1 (stereo unspecified)	-0.2	-4.1	0.1	11	-1%	0.68	-6
COn1c(-c2ccccc2)c(C=O)c2ccccc21	2.7	4.1	-0.4	1.4	x	0.64	-11
Cc1ccc(F)c(C2=CC(=O)C[C@H](c3ccc(F)cc3)C2)c1	-4.3	2.6	-0.1	-0.4	x	x	-10
C=CCn1c(C)cc(C(=O)CSc2nc3ccccc3o2)c1C	1.2	-0.1	-1.2	3.3	u	0.73	-4
CC(=O)Nc1cc(NC(C)=O)cc(C(=O)OCC(=O)N2CC(C)OC(C)C2)c1 (stereo unspecified)	-0.5	1.3	0.4	0.7	11%	0.8	-4
COc1ccc(Cl)cc1NC(=O)Nc1ccc(Br)cn1	1.2	-5.5	0.7	1.8	-7%	0.73	3
Cc1cc(C)cc(NC(=O)C2CCCN2S(=O)(=O)c2ccc3c(c2)C(C)(C)C(=O)N3C)c1 (stereo unspecified)	-0.1	-8.2	0.0	1.3	-6%	0.75	-2
COc1ccc(C(=O)NNC(=O)c2cc3cccc(OC)c3oc2=O)cc1	-1.0	0.7	0.6	5.0	-11%	0.66	-1
Cc1ccc(S(=O)(=O)N(C)Cc2ccc(-c3nnc4n3CCC4)cc2)cc1	3.5	0.9	0.9	0.3	-5%	0.74	10
Oc1ccccc1C=NN=Cc1ccccc1Cl	-5.2	x	x	x	-9%	x	-1
CCOc1ccc(Cc2onc3c2C(=O)CC(C)(C)C3)cc1OCC	5.0	1.9	0.5	0.6	-3%	0.68	-3
O=C(Nc1cc(C(F)(F)F)ccc1Cl)C(Sc1ccccn1)c1ccccc1 (stereo unspecified)	-0.5	-3.0	0.3	6.1	-4%	0.69	-5
CC(C)(O)CNC(=O)Nc1ccc(Cl)c(Cl)c1	-1.8	3.3	-0.5	4.9	-9%	0.62	0
Cc1ccc(CN2CC(C(=O)Nc3ccc4c(C)cc(=O)oc4c3)CC2=O)cc1 (stereo unspecified)	-2.9	-4.9	-0.4	-201	-1%	0.74	-7
CC(=O)Nc1ccc(OS(=O)(=O)c2c(C)cc(C)cc2C)cc1	-0.5	0.5	0.3	2.9	-7%	0.72	-6
COc1ccc(S(=O)(=O)NC(CC(=O)NCc2ccco2)c2ccco2)cc1 (stereo unspecified)	1.1	-2.3	0.5	1.5	-1%	0.77	0
COCCN(CCOC)S(=O)(=O)c1ccc(C(=O)Nc2nnc(C3CC3)o2)cc1	-1.7	+	0.4	7.2	1%	0.7	8
COc1ccc(OC)c(S(=O)(=O)NCC(=O)NC2CCCCCC2)c1	-2.8	-3.8	1.0	0.3	8%	0.72	-2
Cc1ccc(S(=O)(=O)NCC2CCC(C(=O)NCc3ccco3)CC2)cc1 (stereo unspecified)	-1.0	0.9	-0.5	0.9	10%	0.79	4
O=[N+]([O-])c1ccccc1S(=O)(=O)N1CCN(S(=O)(=O)c2ccc3c(c2)OCCO3)CC1	1.1	1.9	3.5	1.9	x	0.71	3
COc1ccc(OC)c(NC(=O)[C@@]2(CC(=O)O)CC(/C=C/c3ccccc3)=NO2)c1	1.2	-0.3	0.0	4.8	3%	0.69	-1
Cc1ccccc1C(=O)c1cccn1CC(=O)NCCC1=CCCCC1	-1.9	-1.8	-0.6	3.8	x	0.71	-3
Cc1ccc(S(=O)(=O)NC(=O)Nc2ccc(N(C)C)cc2)cc1	-1.3	1.7	-0.2	6.7	x	0.72	1
O=C(Cn1nnc(-c2cccs2)n1)N1CCc2ccccc2C1	-0.6	2.4	-0.1	0.3	10%	0.66	2
CCOC(=O)N1CCN(CC(=O)Nc2ccc(F)cc2)CC1	-0.4	-4.7	1.1	2.3	5%	0.68	16
C=C(C)COc1ccc(-c2nc(N)ncc2Oc2ccccc2OCC)c(O)c1	2.4	1.1	0.6	6.5	-58%	0.79	6
COc1cc(Cc2nccc3cc(OC)c(OC)cc23)c(NC(C)=O)cc1OC	2.2	0.5	-1.3	4.0	x	0.7	-6
O=C1c2ccccc2C(Nc2ccc(S(=O)(=O)N3CCCCCC3)cc2)N1Cc1ccco1 (stereo unspecified)	6.1	0.4	0.3	1.8	-1%	0.75	22
CC1(C)Cc2c(c(=S)nc(-c3ccccc3)n2CCN2CCOCC2)CO1	2.4	-6.7	-1.1	13	-6%	0.73	4
CN(CCC#N)C(=O)COC(=O)c1cc(Cl)cc(Cl)c1N	-6.6	-4.9	1.0	i	-6%	0.69	-1

A portion of the results above:
SMILES	HNF4A DNA FP	LANA-H2B inh	Bfl-1 A1 inh	UCH37 inh	Vif A3G	E coli growth	Beta2AR agonist
COc1ccc(S(=O)(=O)NC(CC(=O)NCc2ccco2)c2ccco2)cc1 (stereo unspecified)	1.1	-2.3	0.5	1.5	-1%	0.77	0
COCCN(CCOC)S(=O)(=O)c1ccc(C(=O)Nc2nnc(C3CC3)o2)cc1	-1.7	+	0.4	7.2	1%	0.7	8
COc1ccc(OC)c(S(=O)(=O)NCC(=O)NC2CCCCCC2)c1	-2.8	-3.8	1.0	0.3	8%	0.72	-2
Cc1ccc(S(=O)(=O)NCC2CCC(C(=O)NCc3ccco3)CC2)cc1 (stereo unspecified)	-1.0	0.9	-0.5	0.9	10%	0.79	4
O=[N+]([O-])c1ccccc1S(=O)(=O)N1CCN(S(=O)(=O)c2ccc3c(c2)OCCO3)CC1	1.1	1.9	3.5	1.9	x	0.71	3

(listing goes on)
SMILES	HNF4A DNA FP	LANA-H2B inh	Bfl-1 A1 inh	UCH37 inh	Vif A3G	E coli growth	Beta2AR agonist
Cc1ccsc1C(=O)Nc1ccc(S(=O)(=O)N2CCOCC2)cc1	-1.2	4.8	-2.1	4.6	-8%	0.7	1
C=CCNCc1cc(=O)n2c(-c3ccccc3)csc2n1	-1.7	-0.2	0.4	1.6	1%	0.68	5
O=P(c1ccccc1)(c1ccccc1)c1ccc(O)cc1	-1.9	-3.4	0.0	4.2	x	0.74	1
COc1cccc(NC(=O)C2COc3ccccc3O2)c1 (stereo unspecified)	0.6	0.9	-1.0	1.4	-6%	0.65	-2
COc1ccc(-c2cn3cc(Br)cnc3n2)cc1	-3.8	2.8	-1.9	-26	2%	0.71	-4
CC(C)(C)c1ccc(C(=O)NNc2cc(Cl)cc(Cl)c2)cc1	-2.8	2.2	-0.8	3.2	-14%	0.68	3
O=C1CNC(=O)/C(=C\c2ccccc2)N1	2.7	-3.7	0.8	5.6	-8%	0.64	5
COc1ccc(-c2c(C)nn3c(N4CCCCCC4)cc(C)nc23)cc1OC	-0.9	-0.3	0.4	0.3	-2%	0.67	7
CSc1ccc(/C=N/NC(=O)c2cc(O)cc(O)c2)cc1	0.6	-7.9	-7.3	x	x	x	11
CSc1nsc(SC)c1NC(=O)N1CCCCC1	-1.8	3.4	1.5	0.6	16%	0.71	1
COc1ccc2c(CC(=O)Nc3nc(C)cs3)coc2c1	4.7	-4.4	0.1	-2.0	3%	0.67	10
COc1ccc(NC(=O)CN2CCc3ccccc3C2)cc1S(=O)(=O)N1CCOCC1	-3.8	-3.3	-0.2	2.9	5%	0.67	3
CSc1ccc(Cl)c(C(=O)Nc2cc(S(=O)(=O)N3CCOCC3)ccc2N2CCOCC2)c1	4.6	0.0	0.4	0.8	-7%	0.66	6
O=C1c2ccccc2-c2nc3ccccc3cc21	-3.0	-5.4	-5.9	2.3	-4%	0.7	-1
Cc1ccsc1C(=O)OCC(=O)c1ccc(OC(F)F)cc1	2.8	-0.8	-7.2	1.4	7%	0.69	0
COC(=O)Cn1cc(C(=O)c2ccco2)c2ccccc21	-0.8	1.3	0.7	11	18%	0.71	12
CN(C)S(=O)(=O)N1CCN(C(=O)c2ccccc2Cl)CC1	-0.5	-4.0	0.4	-0.3	27%	0.7	7
CCOC(=O)c1ccccc1NC(=O)CSc1nnnn1C	1.6	0.8	0.3	x	7%	0.7	-8
CCCS(=O)(=O)c1c(S(=O)(=O)CCC)c2c3ccccc3ccn2c1C(=O)OC	0.5	0.7	-0.3	-5.9	1%	0.71	2
COCCn1nnnc1C(c1ccccn1)N1CCN(c2cccc(C)c2C)CC1 (stereo unspecified)	-0.4	-3.6	0.1	1.2	x	0.66	2
NS(=O)(=O)c1ccc(NC(=O)COC(=O)/C(=C/c2cccs2)c2cccs2)cc1	5.4	-5.8	-0.5	3.7	u	0.75	1
CN(C)c1cccc(C(=O)OCC(=O)N(C)c2ccccc2)c1	3.2	-1.4	2.0	-23	x	0.71	-12
COc1ccc(NC(=O)CCCn2c(=O)c3sccc3n(Cc3ccccc3)c2=O)cc1	2.4	x	0.0	-0.7	-14%	0.64	0
COc1ccc(C2Nc3ccccc3NC3=C2C(=O)CC(C)(C)C3)cc1 (stereo unspecified)	0.3	-1.1	-0.1	9.5	1%	0.69	5
COc1cc(-c2noc(C)c2/C=C/c2ccc(C(=O)O)cc2)cc(OC)c1OC	-13	2.6	-0.6	6.2	x	x	3
ONC(=Nc1ccc(Cl)cc1)c1ccccc1Cl	3.0	-11	0.2	4.5	2%	0.73	4
CCN(C(=O)CN1CCN(S(=O)(=O)c2ccccc2C(F)(F)F)CC1)c1c(N)n(Cc2ccccc2)c(=O)[nH]c1=O	0.3	1.0	0.7	5.3	30%	0.68	-5
Cc1ccc(C)c(NC(=O)CCc2nnc3ccc(NCc4ccco4)nn23)c1	3.1	-1.6	-0.5	6.0	x	0.73	3
Cn1cc(CNCCCn2ncc3ccccc32)c(-c2ccccc2F)n1	0.5	-2.5	0.2	2.4	u	0.7	2
Cc1ccc(N(CC(=O)NCc2ccccc2)C(=O)c2csnn2)c(C)c1	0.6	3.5	0.2	0.9	x	0.63	4
COc1ccccc1C(=O)N1CCN(CCc2ccccc2)CC1	2.8	2.9	-0.6	2.2	5%	0.7	7
CCc1nnc(NC(=O)C2CCCCC2)s1	1.0	5.6	-0.9	1.6	-3%&-3%	0.68	-2
O=C(CNc1cccc(S(=O)(=O)N2CCCC2)c1)Nc1ccc(F)c(F)c1	-4.0	5.9	0.5	2.5	2%	0.62	17
COc1ccc(OC)c(NC(=O)CCCCCn2nnc3ccccc3c2=O)c1	1.4	-4.9	0.2	-0.3	-8%	0.64	5
CN1CCN(NC(=O)Nc2cccc(F)c2)CC1	0.1	-0.7	0.3	0.5	0%	0.63	-6
O=C(NCCc1nc2ccccc2[nH]1)/C(=C/c1ccc(F)cc1)NC(=O)c1ccco1	-2.5	-0.8	0.6	2.4	-3%	0.62	0
Cc1cccc(Nc2nnc(SCC(=O)c3c(N)n(C4CC4)c(=O)[nH]c3=O)s2)c1	-1.4	-9.2	-0.8	3.6	-1%	0.71	5
N#CCSc1ccsc1C(=O)Nc1ccc(F)cc1	-1.6	0.3	-2.1	3.9	3%	0.69	-13
Cc1c(Cl)cccc1NCC(=O)Nc1ccc(Cl)cc1F	0.4	1.7	0.2	2.8	8%	0.64	-1
O=C(CSc1ccc(S(=O)(=O)N2CCCCC2)cn1)Nc1ccccc1Br	5.8	1.4	0.7	0.9	2%	0.67	2
O=C1C=C(c2cccc3c2Oc2ccccc2S3)C[C@@H](c2ccc(Cl)cc2)C1	-1.5	1.6	-0.5	1.7	x	x	-17
COc1cc(/C=C/C(=O)N[C@@H](Cc2c[nH]c3ccccc23)C(=O)O)ccc1O	2.5	-3.6	1.9	-6.7	x	0.69	-6

Random draw from the library. Share with any hit: about 2.1%.
